# VCAM-1 down imaging = inhibitors of TNFa-induced VCAM-1 surface display, imaging, high-content imaging, pooled HUVEC, TNFa stimulus (AID 456); HUVEC TNFa-induced VCAM-1 surface expression, immunofluorescence imaging; numbers were filed only for top-ranked candidate wells; one-dose inhibition, % at 5 µM; IC50 in µM for titrated hits; actives 0.2% (n = 10,000);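 active = top tenth filtered wells with inhibition above zero that passed visual or statistical confirmation; inactive = the rest, including hits rejected on review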;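 also: 0% = stimulated vehicle wells and 100% = unstimulated cells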
# VCAM-1 augmentation = enhancers of VCAM-1 display on endothelial cells, imaging, high-content imaging, pooled HUVEC, TNFa stimulus (AID 457) | Pooled HUVEC, TNFa-induced VCAM-1 immunofluorescence imaging; hits of this screen are not shown here | calls only | actives 0.2% (n = 10,000);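 active = a top-ranked rise in VCAM-1 staining upheld on image or statistical review; inactive = the rest, including candidates rejected on review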;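 also: compounds tested at 5 µM in the well; cells exposed to compound for 24 hours before fixing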
# FPR ligand = human FPR ligands by binding competition, primary screen, cell-based, FPRL1 counter-screen, flow cytometry. FPR-expressing cells, fluorescent ligand binding. AID 440, 2006. actives 0.74% (n = 24,000). inhibition, %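 (tested at 6.7 µM)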;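 also: 0% = buffer wells and 100% = receptor blocker peptide wells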
# Target sequence (P21462 whole entry, looked up): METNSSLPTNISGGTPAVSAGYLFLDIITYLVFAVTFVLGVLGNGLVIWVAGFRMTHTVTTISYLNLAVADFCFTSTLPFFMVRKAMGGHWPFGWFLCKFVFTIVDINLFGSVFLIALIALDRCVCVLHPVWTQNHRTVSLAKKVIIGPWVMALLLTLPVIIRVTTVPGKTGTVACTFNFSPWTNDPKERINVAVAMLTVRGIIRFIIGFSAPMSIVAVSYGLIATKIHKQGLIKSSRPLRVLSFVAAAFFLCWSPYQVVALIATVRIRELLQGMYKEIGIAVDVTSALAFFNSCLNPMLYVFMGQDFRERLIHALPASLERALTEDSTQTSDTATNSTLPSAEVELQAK
# VCAM-1 inhibition = inhibitors of TNFa-induced VCAM-1 surface display, cell-based, plate reader, pooled HUVEC, TNFa stimulus (AID 454); HUVEC TNFa-induced VCAM-1 surface immunofluorescence, plate reader; numbers were filed only for top-ranked candidate wells; inhibition, % at 5 µM; actives 0.2% (n = 10,000);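 active = compound among top-ranked inhibitors of TNF-induced VCAM-1 adhesion protein staining, with the hit upheld by image or statistical review; inactive = the rest, including hits rejected on review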;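 also: 0% = TNFa with vehicle and 100% = cells without TNFa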
# FPRL1 binder = human FPRL1 ligands by binding competition, primary screen, cell-based, FPR counter-screen, flow cytometry. inhibition, %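 (tested at 6.7 µM)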. AID 441, 2006. actives 0.3% (n = 24,000). FPRL1-expressing cells, fluorescent ligand binding inhibition;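 also: 0% = buffer alone and 100% = receptor blocker peptide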
# Target sequence (P25090 whole entry, looked up): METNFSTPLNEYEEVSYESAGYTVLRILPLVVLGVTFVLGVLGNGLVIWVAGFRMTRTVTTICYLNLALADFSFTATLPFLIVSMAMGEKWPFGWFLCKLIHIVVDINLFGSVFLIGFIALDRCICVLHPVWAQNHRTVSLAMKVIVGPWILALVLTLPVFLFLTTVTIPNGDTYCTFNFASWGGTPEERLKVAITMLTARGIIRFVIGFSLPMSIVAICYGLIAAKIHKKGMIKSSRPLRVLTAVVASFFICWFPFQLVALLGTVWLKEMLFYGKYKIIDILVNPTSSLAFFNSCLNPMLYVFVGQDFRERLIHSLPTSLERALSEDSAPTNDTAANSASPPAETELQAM
# The depositor's hits bear a star; i = inactive; nt = not tested or not shown.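 The calls were made as follows, unless noted: active = mean above 30%; inconclusive = self-fluorescent; inactive = the rest.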
SMILES,VCAM-1 down imaging,VCAM-1 augmentation,FPR ligand,VCAM-1 inhibition,FPRL1 binder
COc1ccc(N2CCN(Cc3nc4ccccc4c(=O)[nH]3)CC2)cc1,i,i,-5,i,0
COc1ccc(C2/C(=C(\O)c3ccc4c(c3)OCCO4)C(=O)C(=O)N2CCCN(C)C)cc1 (configuration not stated),nt,nt,-3,nt,9
CCCCn1c(SCC(=O)NCC2CCCO2)nc2ccc(N3CCOCC3)cc2c1=O (configuration not stated),nt,nt,5,nt,6
CCOC(=O)c1oc2cc(O)c(CC)cc2c(=O)c1-c1ccc2c(c1)OCCO2,nt,nt,2,nt,-2
COc1cccc(CNC(=O)C2CCCN(S(=O)(=O)c3cnc[nH]3)C2)c1 (configuration not stated),nt,nt,-2,nt,5
CCOC(=O)N1CCC(NC(=O)c2cc(S(=O)(=O)N3CCC4(CC3)OCCO4)ccc2F)CC1,nt,nt,-6,nt,-2
O=c1[nH]ncc2c3ccccc3n(Cc3ccccc3)c12,nt,nt,-4,nt,4
CC(C)CNC(=O)c1ccccc1NC(=O)c1ccc(CN2CCOCC2)cc1,i,i,-5,i,-7
CCOc1cc(C2C(C(=O)OC)=C(C)N=C3SCCC(=O)N32)ccc1OC(C)=O (configuration not stated),nt,nt,-3,nt,-8
O=C(c1ccccc1F)N1CCN(Cc2cccc(Cl)c2)CC1,i,i,16,i,6
CC1CCN(S(=O)(=O)c2ccc3[nH]c(=O)c(=O)[nH]c3c2)CC1,nt,nt,1,nt,-5
O=C(Nc1ccccc1C(=O)N1CCN(c2ccccc2)CC1)c1ccco1,i,i,-6,i,1
C=C(C)Cn1c(SCC)nc2ccccc2c1=O,i,i,7,i,-4
Cc1nn(Cc2ccccc2)c(C)c1NC(=O)c1cc(-c2ccc3c(c2)OCO3)on1,nt,nt,0,nt,-2
COc1ccc(Cl)cc1S(=O)(=O)N1CCN(c2ccc(F)cc2)CC1,i,i,0,i,-6
CCOC(=O)N1CCC2(CC1)CC(=O)c1c(ccc3oc(C(=O)O)c(C)c13)O2,i,i,-6,i,-2
CCC(C)NC(=O)CCCCCn1c(=O)[nH]c2cc(OC)c(OC)cc2c1=O (configuration not stated),nt,nt,-4,nt,-7
COc1ccc(-c2nc(CS(=O)(=O)CC(=O)Nc3ccc(Cl)cc3)c(C)o2)cc1,nt,nt,0,nt,-3
O=C1CC(N2CCC(C(=O)N3CCCCC3)CC2)C(=O)N1 (configuration not stated),i,i,3,i,3
COc1ccc(NC(=O)CN(c2ccc(C)cc2)S(C)(=O)=O)c(OC)c1,i,i,0,i,1
CCCC(=O)Nc1c2c(nn1-c1ccc(C)cc1C)CSC2,nt,nt,0,nt,-1
N#CC1=C(N)N(c2ccccc2)C(c2ccco2)C1(C#N)C#N (configuration not stated),i,i,-2,i,5
CCOC(=O)N1CCN(C(=O)c2cnn3c(C)c(Cc4ccc(C)cc4)c(C)nc23)CC1,nt,nt,-3,nt,-12
CC(=O)c1c(N2CCOCC2)nc(=S)n(Cc2ccccc2)c1C,nt,nt,3,nt,4
COc1ccc(C(=O)NCCn2ccc3ccccc32)cc1,i,i,0,i,-2
O=C(c1cc(-c2ccc3c(c2)OCO3)on1)N1CCN(c2ccc(F)cc2)CC1,nt,nt,2,nt,4
CCCOc1ccc(NC2=CC(=O)CC(C)(C)C2)cc1,i,i,1,i,0
COc1ccc(Cl)cc1NC(=O)C1CSC(c2ccncc2)=N1 (configuration not stated),nt,nt,-4,nt,-5
O=C(O)CN1C(=O)COc2cc(S(=O)(=O)N3CCCC3)ccc21,nt,nt,-17,nt,0
NC1=NC(c2ccc(Br)cc2)n2c(nc3ccccc32)N1 (configuration not stated),i,i,-2,i,-2
CC(=O)Nc1ccc(NC(=O)Cn2cc3c(n2)CCCC3)cc1,nt,nt,-4,nt,7
COc1cc(NC(=O)CN2CCN(S(=O)(=O)c3ccc(C(C)C)cc3)CC2)cc(OC)c1,nt,nt,-3,nt,2
CCOc1ccccc1-c1nc(-c2ccc(NC(=O)c3ccc(Br)o3)cc2)no1,nt,nt,2,nt,1
O=C1C2=C(c3ccccc31)[N+](=O)[C@@H]1CCCC[C@@H]1N2[O-],nt,nt,5,nt,1
COc1ccccc1NC(=O)Cc1noc(CSc2cc(C)c3ccccc3n2)n1,i,i,-6,i,-5
O=C1CCCc2nc(N3CCCCC3)sc21,i,i,-2,i,1
Cn1c(C(=O)N2COCC2(C)C)cc2c(=O)n3ccccc3nc21,nt,nt,-2,nt,-4
COCCn1c(=O)[nH]c2cc(C(=O)OC)ccc2c1=O,nt,nt,0,nt,-7
Cc1cc(O)c(-c2cc(C(=O)Nc3ccc(S(=O)(=O)N4CCOCC4)cc3)[nH]n2)cc1C,i,i,-2,i,2
COc1ccc(-c2ccc(CCC(=O)O)n2NC(=O)c2cccs2)cc1,i,i,-6,i,0
Cc1cc(C)c(S(=O)(=O)N2CCN(CCO)CC2)c(C)c1,nt,nt,-1,nt,-3
CCn1c(=O)c2cc(C(=O)Nc3cc(C)on3)sc2c2ccccc21,nt,nt,-6,nt,-4
CC(C)(C)C(=O)CN1CCN(S(=O)(=O)c2ccc(F)cc2)CC1,nt,nt,-1,nt,0
COc1ccc(OC)c(CCNC(=O)CS(=O)(=O)Cc2nc(-c3ccccc3C)oc2C)c1,nt,nt,0,nt,-10
COc1ccc(C(CC(=O)NC(C)(C)C)n2cccc2)cc1 (configuration not stated),nt,nt,-3,nt,-2
Cc1ccc(S(=O)(=O)C(C#N)c2nc3ccccc3nc2OC(C)C)cc1 (configuration not stated),i,i,-11,i,-4
O=C(COC(=O)c1cncc(Br)c1)NCCC1=CCCCC1,i,i,-1,i,-8
Cc1ccnc(NC(=O)Nc2ccc3c(c2)N(C)C(=O)CS3)c1,nt,nt,2,nt,1
COc1ccccc1NC(=O)N(Cc1ccccc1)c1ccccn1,i,i,-2,i,4
c1ccc(-c2noc(CSc3nnnn3-c3ccccc3)n2)cc1,nt,nt,11,nt,12
CCC(=O)NCCNC(=O)c1c(SC)nsc1SC,nt,nt,-3,nt,-3
COc1cccc2sc(Nc3nc(-c4ccccn4)cs3)nc12,nt,nt,-10,nt,4
Cc1ccc(Cn2c(=S)[nH]c3ccc(N4CCOCC4)cc3c2=O)o1,nt,nt,0,nt,0
CCSc1nnc(NC(=O)CSc2nccn2-c2cc(C)cc(C)c2)s1,nt,nt,2,nt,-1
O=C1N(CN2CCC3(CC2)OCCO3)c2ccccc2C12OCCCO2,nt,nt,3,nt,3
Cc1noc(C)c1COc1cccc(C(=O)Nc2ccc(C#N)cc2)c1,i,i,3,i,-7
COc1cccc(-c2cc(C(=O)N3C(C)CCCC3C)no2)c1 (configuration not stated),nt,nt,6,nt,1
CCOC(=O)CCC(=O)c1c(C)oc2ccc(OC)cc12,i,i,-6,i,4
c1csc(Cc2nc(-c3ccc(-n4cccc4)cc3)no2)c1,nt,nt,1,nt,-3
Cc1ccc(C2/C(=C(/O)c3cnn(-c4ccccc4)c3C)C(=O)C(=O)N2CCN2CCOCC2)o1 (configuration not stated),i,i,20,i,-3

# One compound at a time, from the list above.
# Entry for `COc1cc(NC(=O)CN2CCN(S(=O)(=O)c3ccc(C(C)C)cc3)CC2)cc(OC)c1` : VCAM-1 down imaging: nt; VCAM-1 augmentation: nt; FPR ligand: -3; VCAM-1 inhibition: nt; FPRL1 binder: 2
# Entry for `COc1ccc(Cl)cc1S(=O)(=O)N1CCN(c2ccc(F)cc2)CC1` : VCAM-1 down imaging: i; VCAM-1 augmentation: i; FPR ligand: 0; VCAM-1 inhibition: i; FPRL1 binder: -6

# Next part:
SMILES,VCAM-1 down imaging,VCAM-1 augmentation,FPR ligand,VCAM-1 inhibition,FPRL1 binder
COc1ccc(CN2C(=O)c3ccccc3C2C(=O)NCC2CCCO2)c(OC)c1 (configuration not stated),nt,nt,2,nt,4
CCOC(=O)c1ccc2c(c1)N(Cc1ccccc1C)C(=O)c1ccccc1S2=O (configuration not stated),nt,nt,7,nt,-12
Cc1ccccc1-c1nc2ccccc2c(=O)n1C1CCS(=O)(=O)C1 (configuration not stated),i,i,17,i,8
C=CCNC1=C(Cl)C(=O)N(c2ccccc2Cl)C1=O,nt,nt,-5,nt,-11
COC(=O)C(Nc1nccs1)(OC)C(F)(F)F (configuration not stated),nt,nt,0,nt,9
CC(=O)c1c(C)[nH]c(C(=O)NCCCN2CCCC2)c1C,nt,nt,4,nt,2
COc1ccc(C2N(c3cc(Cl)ccc3OC)C(=O)C3CCCN32)cc1OC (configuration not stated),nt,nt,-4,nt,9
CC(=O)OC1CSc2nc3ccccc3n2C1 (configuration not stated),i,i,-2,i,-1
COc1ccc(C)cc1NC(=O)c1nc2nc(C)cc(C)n2n1,i,i,7,i,-1
CN(C)C(CN1C(=O)C2CC=CCC2C1=O)c1cn(C)c2ccccc12 (configuration not stated),i,i,1,i,-4
O=C(C1CCN(S(=O)(=O)N2CCOCC2)CC1)N1CCOCC1,nt,nt,-8,nt,4
O=C(C1CCCN1S(=O)(=O)c1cccc2cccnc12)N1CCc2ccccc2C1 (configuration not stated),nt,nt,0,nt,3
CCOc1ccccc1NC(=O)CSc1nnc(Cn2c(=O)sc3ccccc32)n1C,nt,nt,-4,nt,0
COC(=O)CC1Oc2ccc(C)cc2NC1=O (configuration not stated),nt,nt,-5,nt,5
COc1cccc(N2CCN(S(=O)(=O)c3ccc4nc(-c5ccccc5)[nH]c4c3)CC2)c1,nt,nt,-6,nt,-2

# Exported with bars between the fields: 4 of the compounds above
smiles | VCAM-1 down imaging | VCAM-1 augmentation | FPR ligand | VCAM-1 inhibition | FPRL1 binder
COc1ccc(CN2C(=O)c3ccccc3C2C(=O)NCC2CCCO2)c(OC)c1 (configuration not stated) | nt | nt | 2 | nt | 4
COc1ccc(C2N(c3cc(Cl)ccc3OC)C(=O)C3CCCN32)cc1OC (configuration not stated) | nt | nt | -4 | nt | 9
Cc1ccccc1-c1nc2ccccc2c(=O)n1C1CCS(=O)(=O)C1 (configuration not stated) | i | i | 17 | i | 8
CC(=O)c1c(C)[nH]c(C(=O)NCCCN2CCCC2)c1C | nt | nt | 4 | nt | 2

# More records follow:
SMILES,VCAM-1 down imaging,VCAM-1 augmentation,FPR ligand,VCAM-1 inhibition,FPRL1 binder
NC(=O)C1(N2CCCCC2)CCN(S(=O)(=O)c2cc(Cl)ccc2Cl)CC1,nt,nt,-9,nt,-12
CCN(CC)CCCNC(=O)c1nn(-c2ccccc2OC)c(=O)c2ccccc12,nt,nt,3,nt,-10
COCCCNC(=O)Cn1nc(-c2ccc(C)cc2)ccc1=O,nt,nt,0,nt,-4
COc1cccc(N2CCN(Cc3nc(N)nc(Nc4ccccc4OC)n3)CC2)c1,i,i,0,i,0
CCOc1ccc(CC(=O)N2CCN(c3ccc(N4CCOCC4)nn3)CC2)cc1OCC,nt,nt,1,nt,4
CCOC(=O)C1=C(c2ccccc2)N(C)C(=O)NC1c1ccc(O)c(OC)c1 (configuration not stated),nt,nt,2,nt,-4
Cc1nc(SCC(=O)c2c[nH]c3ccccc23)n[nH]1,i,i,-3,i,-5
COC(=O)c1ccc(CSc2nnc(-c3ccncc3)o2)o1,i,i,-2,i,-2
CCCS(=O)(=O)N1CCC(C(=O)NCCCOCC)CC1,nt,nt,-10,nt,-4
CCc1nnc(NC(=O)CSc2nnc(-c3c[nH]c4ccccc34)n2CC)s1,nt,nt,-4,nt,1
NS(=O)(=O)c1ccc(CCNC(=O)NC2(C(F)(F)F)Oc3ccccc3O2)cc1,nt,nt,-2,nt,12
Cc1ccc(S(=O)(=O)N(CC(=O)NCc2ccco2)Cc2ccccc2F)cc1,i,i,3,i,8
O=C(Nc1ccccc1O)c1ccc(Cl)cc1,nt,nt,1,nt,-2
O=C(Cn1c(=O)n(CC2CCCO2)c(=O)c2ccccc21)c1ccccc1 (configuration not stated),i,i,4,i,-2
COc1ccc(-n2nc3c(c2NC(=O)c2cc4ccccc4oc2=O)CS(=O)(=O)C3)cc1,nt,nt,2,nt,-4
Cc1ccc(-c2nn(-c3ccccc3)cc2CN(Cc2ccccc2)C(=O)CCC(=O)O)o1,i,i,5,i,-7
C=C(C)Cn1c(CCNC(=O)CC)nc2ccccc21,i,i,0,i,2
Cc1ccc(C)c(C(C)NC(=O)C2C3CCC(O3)C2C(=O)O)c1 (configuration not stated),nt,nt,-3,nt,-3
Cc1onc(-c2ccccc2)c1C(=O)N1CCN(C/C=C/c2ccccc2)CC1,nt,nt,-1,nt,0
CCOC(=O)c1oc2ccccc2c1NC(=O)c1cccc(OC)c1OC,i,i,-3,i,-7
O=S(=O)(c1ccc(OCC(O)CN2CCc3ccccc3C2)cc1)N1CCOCC1 (configuration not stated),i,i,0,i,-4
COc1cc(-c2nc3cnccn3c2Nc2ccccc2)ccc1O,nt,nt,1,nt,-6

# Some of the compounds tested, so the mix of outcomes need not match the whole.
